Arbovirus inh: antivirals against arbovirus infection | arbovirus infection cell-based antiviral screen | inhibition, % at 10 µM | 200,000 tested, 0.37% active | AID 1251;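 active = inhibition from about 30%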;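 also: bluetongue infection of BSR cells; cell survival read as ATP light after 72 h; 0% = infected wells without compound and 100% = uninfected wells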
YopH inh: YopH (Yersinia) phosphatase inhibition; inhibition, %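 (about 10 µM by stock and volumes)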; 140,000 tested, 0.16% active; fluorescence Ex485/Em525; AID 898;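 active = inhibition of 50% or more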;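 also: controls were vehicle for no effect and minimum signal wells for full effect; inactives centre near -20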
RecA splice inh: blocks M. tuberculosis RecA intein splicing. P9WHJ3. cell-free RecA intein splicing, fluorescence. inhibition, %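 (about 9 µM by stock and volumes)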. 290,000 tested, 0.75% active. AID 2221; in the data active = inhibition above about 30%; inconclusive = no clear call, values can overlap the other calls;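 also: 0% = vehicle wells and 100% = reference inhibitor control wells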
Target sequence (P9WHJ3 whole entry, looked up, canonical isoform): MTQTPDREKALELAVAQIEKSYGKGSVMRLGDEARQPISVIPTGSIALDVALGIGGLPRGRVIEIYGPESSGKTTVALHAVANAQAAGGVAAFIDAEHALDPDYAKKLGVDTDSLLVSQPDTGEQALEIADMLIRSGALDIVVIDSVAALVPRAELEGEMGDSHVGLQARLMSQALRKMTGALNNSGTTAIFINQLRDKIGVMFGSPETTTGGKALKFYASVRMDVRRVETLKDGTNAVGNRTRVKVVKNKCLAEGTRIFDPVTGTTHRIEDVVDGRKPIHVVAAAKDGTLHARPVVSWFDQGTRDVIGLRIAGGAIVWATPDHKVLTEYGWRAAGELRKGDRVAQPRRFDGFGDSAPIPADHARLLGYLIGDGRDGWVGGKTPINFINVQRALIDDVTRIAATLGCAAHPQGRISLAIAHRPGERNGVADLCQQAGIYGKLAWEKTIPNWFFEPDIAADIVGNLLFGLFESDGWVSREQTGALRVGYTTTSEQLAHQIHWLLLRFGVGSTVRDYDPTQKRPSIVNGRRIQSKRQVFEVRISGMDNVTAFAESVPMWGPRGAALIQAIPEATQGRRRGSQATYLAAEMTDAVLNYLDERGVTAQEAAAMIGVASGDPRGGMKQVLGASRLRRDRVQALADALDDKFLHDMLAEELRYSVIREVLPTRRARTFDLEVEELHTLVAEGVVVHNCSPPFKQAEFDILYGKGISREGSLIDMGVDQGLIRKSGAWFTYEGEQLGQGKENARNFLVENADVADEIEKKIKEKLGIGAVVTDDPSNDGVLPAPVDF
Mtb H37Rv: M. tuberculosis H37Rv growth inhibitors, H37Rv strain (AID 1626); one-dose inhibition, % at 10 µM; IC50 in µM for titrated hits; 220,000 tested, 0.95% active; M. tuberculosis H37Rv growth inhibition; higher % means a stronger effect;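 active = confirmed in a dose series; inconclusive = inhibition above 80% but not taken into the dose series; inactive = below 80% or under 30% at every dose of the series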;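 also: bacteria incubated seven days before Alamar blue readout; 0% = bacteria only wells and 100% = bacteria with antibiotic wells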
Mtb betalactam: beta-lactam sensitization of Mtb H37Rv | inhibition, % at 25 µM | 330,000 tested, 0.27% active | M. tuberculosis H37Rv growth with meropenem, percent inhibition; hits of this screen are not shown here;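 active = about 74% or more and at least 40 points above the plate without the antibiotic, then above 30% in a dose series; inconclusive = first-round hits that could not be retested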;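 also: growth measured after seven days incubation then overnight dye step; 0% = bacteria only wells and 100% = bacteria with antibiotic; twin plates without the antibiotic show which effects depend on it; some results filed as inactive read as strong as hits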
Arbovirus inh repeat: also measured in Arbovirus inh; calls as there; inhibition, %; measured here: 10K subset replicate screen; many hits read low in the repeat;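 first of two repeat runs on a subset; 0% = infected and 100% = uninfected wells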
* hit, by the source's call; ? = inconclusive; · = not tested or not shown; & = joins results of further samples. Some of the compounds tested; rates above refer to the full screens.

SMILES	Arbovirus inh	YopH inh	RecA splice inh	Mtb H37Rv	Mtb betalactam	others
CCc1ccc(N2CC(C(=O)N/N=C/c3cc([N+](=O)[O-])ccc3O)CC2=O)cc1 (stereo unspecified)	3.1	·	1.1	-1.7%	7.7
Cc1ccc2cc(/C=C(\C#N)C(N)=O)c(N3CCCCC3)nc2c1	2.3	-27.8	-15.3	2.1%	-1.3
O=C(O)CSCC(=O)Nc1ccc(C(=O)O)cc1	-0.2	-18.7	-1.1	7.6%	3.8
CN(C)CCN(C(=O)/C=C/c1cccs1)c1nc2ccc(Br)cc2s1	·	·	1.1	·	1.3
CC1Cc2ccccc2N1S(=O)(=O)c1cnc(Cl)c(Cl)c1 (stereo unspecified)	·	·	2.4	-15.9%	-6.5
CC(=O)c1cccc(NC(=O)NCCc2ccc(Cl)cc2)c1	·	·	1.8	·	-2.0
O=C(Nc1ccc(Cl)cc1)N(Cc1nc2ccccc2c(=O)[nH]1)Cc1cccs1	-19.0	-9.1	8.6	47.6%	94.7
CCOc1ccc(NC(=O)C(C)N2C(=O)c3ccccc3S2(=O)=O)cc1 (stereo unspecified)	·	·	-0.5	·	37.8
CC(/C=C/c1ccco1)=N\NC(=O)c1cccnc1	4.3	-17.3	·	-4.5%	-3.8
Cc1ccc(-c2csc3ncnc(Oc4ccc5c(C)cc(=O)oc5c4)c23)cc1	-16.6	-24.5	-0.8	<0.195µM*	71.0
C=CCc1ccc(OCC(O)CN2CCN(Cc3ccccc3)CC2)c(OC)c1 (stereo unspecified)	-10.2	·	-0.9	-0.3%	-4.4
CCN(C(=O)Cc1nc(N)n[nH]1)C1(C(=O)Nc2ccccc2)CCCCC1	8.5	·	0.8	-0.6%	-1.2
O=S(=O)(c1ccccc1C(F)(F)F)N1CCOCC1	8.8	-37.1	-0.2	-22.6%	-11.6
O=C(NNC(=O)c1cccc(-n2cnnn2)c1)c1ccccc1	8.5	·	1.2	4.6%	-6.4
C=CCc1cccc2cc(C(=O)NC)c(=O)oc12	-1.5	28.7	-0.2	-6.8%	-1.3
Cc1ccc(S(=O)(=O)N/N=C/c2c(F)cccc2Cl)cc1	-9.6	-25.5	-1.0	7.1%	1.9
O=C(Cc1cc(=O)[nH][nH]1)N/N=C/c1cccc2ccccc12	1.1	·	94.1*	-3.5%	1.4
Cc1cc(C)c2c(N=NN3CCOCC3)[nH]nc2n1	-11.0	-20.9	-4.9	-3.3%	0.6
CCC1CCCCN1C(=O)C1CC(c2cc(Cl)c(OC)cc2OC)=NO1 (stereo unspecified)	-4.7	-32.2	-0.5	-8.8%	0.6
C/C(=N\NC(=O)c1cccc(N/N=C(\C)c2ccco2)c1)c1ccco1	-3.7	·	6.8	3.5%	·
CCN(CC(=O)NCc1cccs1)C(=O)c1ccc(OC)c(S(=O)(=O)N2CCOCC2)c1	·	·	0.7	·	1.9
COc1cc(C(=O)Nc2ccc(Nc3ccccc3)cc2)cc(OC)c1OC	·	·	7.6	·	-2.9
CC(C)N1CCc2c(sc(NC(=O)CCc3ccccc3)c2C(N)=O)C1	13.9	·	-13.0	0.9%	-6.2
CNC(=O)C12CCC(C)(c3nc4cc(C)c(C)cc4nc31)C2(C)C (stereo unspecified)	6.9	-10.4	·	-6.1%	-3.4
CCc1ccc(NC(=O)CN(N=Nc2nonc2C)c2nonc2C)cc1	-0.9	·	7.6	0.4%	-3.6
Cc1ccc(-c2c(C(=O)N/N=C/c3ccncc3)nnn2-c2nonc2N)cc1	·	·	7.2	·	0.8
O=c1cc(N2CCCCC2)c(-c2ccccc2)nn1Cc1ccc(F)cc1	-6.7	·	11.9	28.2%	3.7
COc1cccc2cc(C(=O)CS(=O)(=O)c3ccc(C)cc3)c(=O)oc12	·	·	1.0	·	8.0
COc1ccc2nc(C)cc(SCC(=O)N/N=C/c3ccccc3)c2c1	4.5	-10.4	-0.5	0.9%	-1.7
COc1ccc(C2=NS(=O)(=O)N(C)C(C(=O)N3CCC(C)CC3)=C2)cc1	·	·	-5.9	·	5.3
C/C=C(/C)C(=O)Nc1cccc(C2=NOC3(C2)C[C@@H](C(N)=O)N(C(=O)CC)C3)c1 (stereo partly specified)	·	·	0.1	14.0%	3.1
Cc1nnc(NC(=O)CSc2nnc(CNC(=O)c3ccccc3)o2)s1	·	·	-2.1	·	?
NCCSC1CC(=O)N(c2ccc(Cl)c(Cl)c2)C1=O (stereo unspecified)	·	·	0.1	·	-0.2
COC(=O)c1scc(C)c1NC(=O)c1ccccc1F	·	·	-0.9	·	-6.8
Cc1cccc(NC(=O)C23CCC(C)(C2Br)C3(C)C)c1 (stereo unspecified)	5.3	-25.1	3.5	-1.6%	-12.8
CCCC1C(=O)Nc2ccccc2N1C(=O)c1cccc(C)c1 (stereo unspecified)	·	·	1.5	·	-2.6
CC(OC(=O)c1cc2c(ccc3ccccc32)oc1=O)c1nc2ccccc2s1 (stereo unspecified)	7.8	-18.6	-24.6	1.6%	20.6
COc1ccc(C(=O)C2CCCN(Cc3ccc4nonc4c3)C2)cc1OC (stereo unspecified)	0.7	·	2.9	8.5%	3.6
CCN(CC)CCNC(=O)c1c(C)n(-c2ccccc2)c2cc(Br)c(OC)cc12	-38.3	-118.8	3.1	-0.7%	-2.8
COc1ccc(OC)c(NC(=O)C2CCCN(S(=O)(=O)c3cccc4nsnc34)C2)c1 (stereo unspecified)	-6.0	-30.4	2.5	8.2%	5.8

At a glance, three of the compounds above.
SMILES	Arbovirus inh	YopH inh	RecA splice inh	Mtb H37Rv	Mtb betalactam	others
CCN(CC(=O)NCc1cccs1)C(=O)c1ccc(OC)c(S(=O)(=O)N2CCOCC2)c1	·	·	0.7	·	1.9
COc1cc(C(=O)Nc2ccc(Nc3ccccc3)cc2)cc(OC)c1OC	·	·	7.6	·	-2.9
CC(C)N1CCc2c(sc(NC(=O)CCc3ccccc3)c2C(N)=O)C1	13.9	·	-13.0	0.9%	-6.2

Next records:
SMILES	Arbovirus inh	YopH inh	RecA splice inh	Mtb H37Rv	Mtb betalactam	others
S=C(NCc1ccncc1)Nc1ccc(Br)cc1Cl	·	·	0.9	·	-6.2
Nc1c(C(=O)N2CCCCC2)sc(=S)n1-c1ccccc1	6.7	-10.7	0.1	7.9%	16.1
Nc1nc2ccc(OC(F)(F)F)cc2s1	-3.4&-8.0	-61.5	-1.7&2.9	-8.0%&0.3%&35.9%	-1.5&-2.4
O=C(Nc1cccc(F)c1)NC1CC2CCCC(C1)N2C1CC1 (stereo unspecified)	-3.3	-35.7	-0.4	-4.8%	-9.6
CCC(C(=O)Nc1cc(C)nn1-c1nc(C)cc(C)n1)c1ccccc1 (stereo unspecified)	2.5	-16.4	2.8	-0.5%	46.1
CCO[C@@H]1OC(C(=O)NCc2ccccc2)=C[C@H](C)[C@H]1CCCO	0.1	·	-1.3	-11.3%	18.2
CC(=O)C1C(c2cccc(Oc3ccccc3)c2)NC(=O)NC1(O)C(F)(F)F (stereo unspecified)	5.8	-31.1	-2.9	·	1.1
O=C(Cn1nnc(-c2ccccc2NC(=O)C2CC2)n1)NC1CCCCC1	3.3	7.0	-1.0	-11.3%	6.7
CCOc1ccc(N(C)S(=O)(=O)c2c[nH]c(C(=O)OC)c2)cc1	·	·	-1.7	·	-5.7
COc1ccc(C(C(=O)NC2CCCC2)N(C(=O)c2snc(-c3ccc(F)cc3)c2N)c2ccccc2)cc1 (stereo unspecified)	-20.3	-2.5	-4.9	-1.2%	-3.4
Cc1cccc(C2CC(c3ccccc3)Nc3ncnn32)c1 (stereo unspecified)	-4.2	-48.5	-1.0	-1.3%	-0.6	Arbovirus inh repeat=-5.8
CCn1c(SCC(=O)Nc2cccc(O)c2)nc2c1c(=O)n(C)c(=O)n2C	·	·	-0.7	·	-0.2
O=C(COc1ccc(F)cc1)N(Cc1cccc(Br)c1)C1CCS(=O)(=O)C1 (stereo unspecified)	·	·	2.3	·	-0.9
O=C(OCCN=C1NS(=O)(=O)c2ccccc21)c1cccnc1	3.5	-5.9	1.8	·	-5.5
CCOC(=O)c1ccc(NNC(C)=O)c([N+](=O)[O-])c1	1.7	·	-1.0	2.9%	9.1
Cc1cccc(C)c1NC(=O)Cn1nc(-c2ccccc2)nc1-c1ccccc1	-19.1	-20.1	-2.4	7.6%	-0.3
Cn1ccc(C(=O)N/N=C/c2ccccc2[N+](=O)[O-])n1	·	·	-7.4	6.0%	14.4
CCC(=O)NCCCOc1ccccc1	1.2	-1.8	-0.3	-7.5%	-2.7
O=C(c1cccc(Br)c1)c1conc1C(=O)c1ccco1	-4.6	10.6	-11.6	5.6%	-3.3
COc1ccc(C2CC(c3ccc(C)cc3)=NN2C(=O)c2ccccc2)cc1 (stereo unspecified)	·	·	0.2	·	-4.9
Brc1cccc(CNc2nc3ccccc3n2CCN2CCOCC2)c1	6.6	·	1.8	8.3%	-6.8
CN1C(=O)C(C)(C)c2cc(S(=O)(=O)NCc3ccc(C(=O)NCc4ccco4)cc3)ccc21	·	·	-1.3	·	-5.2
CCOC(=O)/C(=N\Nc1ccc(Cl)cc1)c1csc(Nc2ccccc2)n1	-39.2	-4.8	-8.1	79.0%	95.2
Cc1nnc(SCC(=O)Nc2ccc(Cl)cn2)[nH]c1=O	-4.0	-25.4	3.6	-11.5%	4.0
CC1CCN(C(=O)/C=C/c2ccc(C(C)(C)C)cc2)CC1	-4.1	-7.4	10.5	14.6%	24.9
COc1ccccc1CNC(=O)c1c(-c2ccccc2)nn(-c2ccccc2)c1C	0.3	6.3	·	6.4%	-7.1
CC(C)N1CC(COc2ccc(Br)cc2)OC1=O (stereo unspecified)	·	·	1.1	·	-6.3
COC(=O)c1cscc1S(=O)(=O)Cc1ccccc1	·	·	-0.8	·	8.1
COc1ccccc1Nc1nc(N)nc(CSc2nccc(C)n2)n1	4.7	10.8	1.0	-6.2%	-3.0
COc1ccc(Cn2c(N)c(C#N)c3nc4ccccc4nc32)cc1OC	9.8	-14.8	·	0.2%	68.7
COc1ccccc1NC(=O)c1ccc(NC(=O)CN2CCN(C(=O)c3ccco3)CC2)cc1	2.1	·	-0.1	-2.0%	11.7
CCCC(C(=O)Nc1ccc(S(=O)(=O)Nc2ncccn2)cc1)c1ccccc1 (stereo unspecified)	·	·	1.8	·	-8.6
Cc1cc(C)cc(NC(=O)CCn2ccnc2)c1	·	·	1.9	·	-4.3
COc1cc(CC(=O)OCC(=O)Nc2cc([N+](=O)[O-])ccc2Cl)cc(OC)c1OC	-3.3	-14.4	-0.2	-2.2%	-2.3
COc1ccccc1NS(=O)(=O)c1ccc(Cl)cc1	7.0	-30.6	2.4	-5.5%	-9.9
Cc1nc(C(C)(C)O)n(-c2ccccc2)n1	1.4	-23.3	1.6	0.0%	-4.2
Fc1ccc(-c2ccc(CNCc3ccccn3)o2)cc1	·	·	9.5	·	90.1
CCOc1ccc(S(=O)(=O)N2CCC(C(=O)NCCN3CCOCC3)CC2)cc1C	·	·	-0.2	·	-4.3
CCCc1cc(C(=O)NNC(=S)NCc2ccccc2)cs1	-11.9	-28.5	7.8	5.0%	-1.2
Cc1c(N2C(=O)C3C4C=CC(C5CC45)C3C2=O)c(=O)n(-c2ccccc2)n1C (stereo unspecified)	·	·	1.4	-3.8%	-13.4
O=[N+]([O-])c1ccc(SCc2ccco2)cc1N1CCOCC1	3.5	·	3.6	10.7%	-4.5
Cc1cc(C)cc(C(=O)NC(CC(N)=O)c2ccc(N3CCCCCC3)c([N+](=O)[O-])c2)c1 (stereo unspecified)	·	·	-0.3	·	-15.0
O=C(CN(c1ccc(Br)cc1)S(=O)(=O)c1ccc(Cl)c([N+](=O)[O-])c1)NCCc1ccccc1	-2.2	·	0.7	-0.5%	-2.5
CC(C)(C)C(=O)Cn1c(NCCCl)nc2ccccc21	13.1	·	-1.6	0.3%	-1.7
CCCC(=O)Nc1ccc2c(c1)C(=O)NC2=O	12.1	-40.9	-0.7	-1.9%	-0.5
Cc1ccc(S(=O)(=O)C2C(=O)N(C)C3(C)CC2c2ccccc2O3)cc1 (stereo unspecified)	-2.8	-22.1	0.2	-1.9%	-2.1
Cc1cccc(C)c1C(OCCN(C)C)C1CCCCC1 (stereo unspecified)	17.5	-18.4	1.4	9.2%	-8.9

Grouped by structure: the compounds so far containing a CF3 group
SMILES	Arbovirus inh	YopH inh	RecA splice inh	Mtb H37Rv	Mtb betalactam	others
O=S(=O)(c1ccccc1C(F)(F)F)N1CCOCC1	8.8	-37.1	-0.2	-22.6%	-11.6
Nc1nc2ccc(OC(F)(F)F)cc2s1	-3.4&-8.0	-61.5	-1.7&2.9	-8.0%&0.3%&35.9%	-1.5&-2.4
CC(=O)C1C(c2cccc(Oc3ccccc3)c2)NC(=O)NC1(O)C(F)(F)F (stereo unspecified)	5.8	-31.1	-2.9	·	1.1

Screening results deposited in PubChem BioAssay by several laboratories.
